Compound activity (PubChem)
TRPML1 blocker – blocks the human TRPML1 channel | 0.02% of 390,000 active | Q9GZU1 | activity change, negative = inhibition, % (test concentration not listed) | TRPML1-inducible cells, Ca2+ dye fluorescence, FDSS; active compounds read low; inhibition of EC80 agonist-evoked calcium signal; in the data active means activity change below about -50%; inconclusive means about -30% to -50%; inactive means above about -30%;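 further: stimulus is agonist 54-4 at its EC80 concentration; on the % scale 0 is the no-effect control and ±100 the full control effect; compound concentration not given in the record; the text of the record puts the active cut at -80%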
Target sequence (Q9GZU1 whole entry, looked up): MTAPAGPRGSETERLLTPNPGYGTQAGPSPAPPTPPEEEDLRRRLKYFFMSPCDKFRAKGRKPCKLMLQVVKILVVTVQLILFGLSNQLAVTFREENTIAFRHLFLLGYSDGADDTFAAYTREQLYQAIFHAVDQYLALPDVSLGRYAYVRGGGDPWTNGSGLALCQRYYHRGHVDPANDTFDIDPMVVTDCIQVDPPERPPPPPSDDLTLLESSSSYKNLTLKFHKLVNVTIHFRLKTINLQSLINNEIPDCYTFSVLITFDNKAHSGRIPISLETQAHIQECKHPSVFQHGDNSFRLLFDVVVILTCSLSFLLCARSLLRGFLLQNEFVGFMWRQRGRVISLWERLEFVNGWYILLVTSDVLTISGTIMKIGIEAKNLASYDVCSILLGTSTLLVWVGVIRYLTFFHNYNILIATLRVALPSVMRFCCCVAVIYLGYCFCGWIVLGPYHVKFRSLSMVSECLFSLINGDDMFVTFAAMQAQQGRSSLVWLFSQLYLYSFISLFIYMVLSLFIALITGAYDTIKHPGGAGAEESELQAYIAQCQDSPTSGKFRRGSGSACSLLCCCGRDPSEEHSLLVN
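Tet-induced TRPML1-DL cells loaded with Ca8 no-wash calcium dye were read kinetically on FDSS. Compound addition was followed by EC80 agonist 54-4 (4 uM final); inhibition was read over 110 s.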
D2 ag – human D2 receptor agonism in beta-arrestin assay | P14416 | DiscoveRx PathHunter D2 beta-arrestin, luminescence, 90 min; 100% = 57 uM dopamine signal | activation, % (concentration not given with the values) | 0.084% of 360,000 active; in the data active = activation above about 40%; inconclusive = about 15% to 40%; inactive = below about 15%; further: compound concentration not given in the record; the text of the record calls up to 30% inactive
Target sequence (P14416 whole entry, looked up): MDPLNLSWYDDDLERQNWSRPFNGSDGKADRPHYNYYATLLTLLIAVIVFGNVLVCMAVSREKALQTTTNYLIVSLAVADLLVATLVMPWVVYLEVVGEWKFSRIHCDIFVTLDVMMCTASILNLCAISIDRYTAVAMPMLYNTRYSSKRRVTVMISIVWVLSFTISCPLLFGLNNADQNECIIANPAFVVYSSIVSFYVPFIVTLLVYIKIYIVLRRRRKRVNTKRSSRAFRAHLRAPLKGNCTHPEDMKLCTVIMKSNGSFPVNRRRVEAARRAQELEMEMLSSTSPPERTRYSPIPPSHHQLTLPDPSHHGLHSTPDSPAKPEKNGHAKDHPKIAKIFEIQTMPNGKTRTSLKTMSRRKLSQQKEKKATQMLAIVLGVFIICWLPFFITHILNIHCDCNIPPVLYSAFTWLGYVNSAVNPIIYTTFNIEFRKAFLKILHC
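Agonist mode: compounds alone added to overnight-plated D2 PathHunter cells for 90 min at 37 C, with 57 uM final dopamine (EC100) defining full response. Beta-arrestin recruitment detected by chemiluminescent reagent, read after 1 h at ambient temperature.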
PINK1 expr mod – changes PINK1 expression. PINK1 immunofluorescence, high-content cytometry, 24 h. Potency, µM (series often up to 76.6 µM), without a hit: at the highest dose activation (PINK1 increase), most hits filed as activators. 0.2% of 410,000 active. AID 624263; active = well fitted activation curve with a large enough effect; inconclusive = small, poorly fitted or top-dose-only effect; inactive = flat fitted curve, though single readings scatter; cell line not stated here;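 further: potency means the concentration at half of the fitted maximal effect; % of control where 0% means no effect; nearly all actives have a fitted effect of over 65% in size; a mitochondrial uncoupler was the plate control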
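A stable cell line was treated with compounds at 5 concentrations for 24 hours, with CCCP as control. PINK1 levels and mitochondrial localization were measured by immunofluorescence with mitochondrial, cell and nuclear markers after fixation, read by laser-scanning cytometry.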
TRPML1 agonist – human mucolipin-1 channel agonism. Q9GZU1. TRPML1-expressing cells, Ca2+ dye fluorescence, FDSS; host cell line not named in the record; reference of the full effect not given here. activation, % (no concentration beside the values). 0.12% of 410,000 active; in the data active = activation above about 50%; inconclusive = about 30% to 50%; inactive = below about 30%; further: 0% is about no effect; the text of the record puts the active cut at 80%
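Agonist activity was taken from a 110 s kinetic Ca2+ dye read on the FDSS after pinning compounds onto TRPML1-DL cells. The cells were seeded at 1,500/well with Tet inducer, incubated about 16 h, then dye-loaded at room temperature.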
Six1-Eya2 inh – Six1/Eya2 interaction inhibition; Q15475+O00167; AlphaScreen GST-Six1/His-Eya2 binding, biochemical; active compounds read low; control for the full effect not named in the record; activity change, % (test concentration not listed); 0.56% of 360,000 active; AID 651725; in the data active = activity change below about -65%; inconclusive = about -30% to -65%; inactive = above about -30%; further: on the % scale 0 is the no-effect control and ±100 the full control effect
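AlphaScreen with GST-Six1 and His-Eya2 (5X mix: 250 nM and 500 nM), glutathione donor and nickel acceptor beads; buffer 50 mM Tris pH 8.0, 300 mM NaCl, 1 mM TCEP; 1 h at 37 C in the dark.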
D2 potentiator – human D2 receptor positive allosteric modulation; P14416; DiscoveRx D2 beta-arrestin cells, luminescence, 90 min; 100% = 57 uM dopamine signal; potentiation, % (test concentration not listed); 0.23% of 360,000 active; AID 624464; active = potentiation of 50% or more; inconclusive = 30% to 50%; inactive = 30% or less;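 further: compound concentration not given in the record; tested on top of an EC20 dose of dopamine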
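PathHunter beta-arrestin assay in DiscoveRx D2 cells. Compounds were added with an EC20 of dopamine (50 nM final) for 90 min at 37 deg C. Luminescence was read 1 h after detection reagent, with 57 uM dopamine as the EC100 control.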
Active calls of the source: *; ? = inconclusive; . = not tested or not shown; [ ] = another dose, or the depositor's remark.

SMILES	TRPML1 blocker	D2 ag	PINK1 expr mod	TRPML1 agonist	Six1-Eya2 inh	D2 potentiator
Cc1ccc(-n2nc3c(c2NC(=O)c2cccs2)CS(=O)(=O)C3)cc1	-4.5	-3.5	4.2%	-0.4	-0.4	-16.7
O=C(Nc1ccccc1C(F)(F)F)c1ccc(F)c(S(=O)(=O)N2CCc3ccccc3C2)c1	2.4	.	-0.6%	1.6	.	.
COc1cc(CNC(C)(C)C)ccc1OCC(=O)NC(C)(C)C	3.5	-1.7	-0.5%	0.7	-0.2	-5.6
Cc1ccccc1-c1nnn(Cc2ccc(F)cc2Cl)n1	.	-5.2	8.5%	.	31.2	-7.3
CN(C)c1c(F)cc(-c2nn[nH]n2)cc1F	0.6	-3.5	0.6%	-0.6	6.0	-11.3
Cc1cc(-c2nnc(CCC(=O)NC(C)(C)C34CC5CC(CC(C5)C3)C4)o2)no1	7.9	-5.3	-0.6%	0.1	4.1	-4.0
CCCc1cc(=O)oc2cc(OC3CCCCC3=O)ccc12 (configuration not stated)	-0.4	9.5	-3.4%	0.1	12.4	-3.2
Cc1ccc(C(=O)CSc2nnc(C(C)C)n2C)cc1C	3.0	-3.0	-0.1%	0.5	-5.6	-15.4
COc1ccc(C[C@H]2CN3C(=NC[C@@H]3C(C)C)N2CCNC(=O)CCC2CCCCC2)cc1	28.1	-1.4	4.9%	-0.4	0.4	-22.1
Cc1cc(C(=O)c2ccccc2)cc(C)c1O	-8.5	-1.0	-1.3%	0.2	-86.1*	-5.4
O=C(Oc1ccc(N(C(=O)c2ccncc2)S(=O)(=O)c2ccc(Cl)cc2)cc1)c1ccncc1	4.9	-2.3	2.6%	0.0	0.0	2.7
CCCCNC(=S)Nc1ccc(-c2nc3ccc(C)cc3s2)cc1	22.2	-2.8	2.5%	-0.3	-2.4	-14.3
COC(=O)c1sc2ccccc2c1NC(=O)c1ccc(S(=O)(=O)N2CCCCC2)cc1	0.6	-6.1	-0.5%	-0.2	0.1	-2.8
c1ccn2c(Cc3nnc4ccccn34)nnc2c1	9.3	-2.9	?	0.5	6.4	-8.9
Cc1cc(C)n(-c2nc(SCCN3CCOCC3)c3c4c(sc3n2)CCCC4)n1	68.5	0.3	-0.3%	0.5	-0.8	-0.7
COC(=O)c1cc(CSc2nnc(NC3CCCCC3)s2)oc1C	-6.0	0.7	1.7%	2.0	-3.6	-4.2
COc1cccc(NC(=O)COC(=O)/C=C/c2c(C)nn(-c3ccccc3)c2C)c1	-2.2	-3.2	0.9%	0.5	-13.8	-9.9
COc1ccccc1NCC(=O)c1ccc(Cl)cc1	-14.1	-11.5	1.3%	-0.6	-22.1	-31.9
O=C(COc1ccc(Br)cc1Cl)Nc1ncn[nH]1	10.8	.	1.3%	-1.2	.	.
Cc1ccc(-c2csc(NC(=O)CSc3ncn(-c4ccccc4)n3)n2)cc1	43.8	-2.3	18.9%	-0.1	1.3	-9.8
Cc1ccc(C)c(N2CCN(CCCNC(=O)c3ccc4nc(CCc5ccccc5)oc4c3)CC2)c1	30.3	.	-1.1%	0.2	.	.
O=C(CN1CCN(C(=O)C2CCCO2)CC1)Nc1ccc(Br)cc1 (configuration not stated)	-5.7	-0.3	-1.1%	-0.2	0.3	5.4
C[C@@H]1CN([C@@H](C)CO)C(=O)Cc2cc(NC(=O)C3CCCCC3)ccc2O[C@H]1CN(C)S(=O)(=O)c1ccccc1	18.8	-2.0	-0.7%	-0.8	-3.6	-5.0
CC(C)c1ccc(NC(=O)C(Cc2ccccc2)NS(=O)(=O)c2ccc3c(c2)oc(=O)n3C)cc1 (configuration not stated)	5.7	.	7.8%	1.5	.	.
NC(=O)NC1(C(=O)O)CCCC1	-3.2	-1.6	-0.7%	0.0	3.3	-5.9
O=c1oc2ccccc2cc1-c1nc(-c2ccccc2)no1	-4.3	-4.0	5.2%	-1.1	23.5	-18.0
CCN(CC)CCOc1ccc(-c2c(C)c3c(ccc4ccccc43)oc2=O)cc1	-5.6	-1.9	-1.7%	0.2	10.0	-3.4
COc1ccc(N2CCN(C(=O)c3ccccc3NS(=O)(=O)c3ccccc3)CC2)cc1	-0.1	-2.1	-0.1%	-0.1	-2.7	-9.3
CCOc1ccc(NC(=O)CSc2nncc(=O)[nH]2)cc1	0.2	-1.7	-1.0%	-0.4	0.3	-4.0
CC(C)(C)NC(=O)c1cccc(NC(=O)CSc2ccccc2)c1	-1.3	-10.5	1.1%	-0.9	-0.4	5.0
CN1CCN(c2sc(S(C)(=O)=O)nc2S(=O)(=O)c2ccc(Cl)cc2)CC1	-14.4	-0.4	-1.8%	-0.1	1.8	-22.6
CC(=O)N/C(=C\c1ccccc1)C(=O)OCC(=O)NC1CCS(=O)(=O)C1 (configuration not stated)	-14.7	0.7	-0.3%	-0.8	2.1	5.6
O=C1CCCN1CCCN1CC(C(=O)N(CCO)Cc2ccccc2)CCC1=O (configuration not stated)	9.4	3.0	-1.4%	0.1	6.5	18.6
CN(C(=O)CSc1nc2ccccc2n1CC(=O)N(C)C1CCCCC1)c1ccc(F)cc1	-1.7	.	1.6%	-0.5	.	.
N/C(=N\OC(=O)c1ccco1)c1cccc([N+](=O)[O-])c1	16.7	?	-1.0%	-0.3	-2.4	80.8*
CC(C)(C)NC(=O)/C(=C\c1ccco1)NC(=O)c1cccs1	-1.3	-2.5	-3.1%	0.7	0.4	1.7
COc1ccccc1NC(=O)CSc1n[nH]c(-c2ccccn2)n1	4.6	-2.0	-2.9%	-1.5	-95.1*	-3.8
O=C(Nc1ccn(-c2ccccc2)n1)c1ccccc1Br	41.9	-2.3	1.5%	0.8	4.1	-7.3
O=C1NC[C@@H](CCCCN2C[C@H](Cc3ccc(O)cc3)N(CCc3ccc(O)cc3)C(=O)C2=O)N(CCc2ccc(O)cc2)C1=O	.	.	-0.8%	-0.2	-5.7	.
Cc1ccc(NC(=O)CSc2ncn[nH]2)cc1	7.1	4.8	5.1%	-0.2	0.0	-2.2
CCOc1ccc(-c2nnc(SCC(=O)NCCc3ccccc3)nc2-c2ccc(OCC)c(OC)c2)cc1OC	-16.9	.	1.1%	1.5	.	.
COc1ccc(CCNC(=O)C2CCN(S(=O)(=O)c3ccc4nc5c(c(C(=O)O)c4c3)CCCC5)CC2)cc1OC	-3.9	0.3	0.9%	-0.1	?	-3.8
Cc1ccc2c(c1)N(CC(=O)OC(CC(C)C)C(=O)NC1CCCC1)C(=O)CO2 (configuration not stated)	-1.2	-0.8	2.5%[38.3 µM]	0.4	1.3	-7.3
Cc1ccc(N2CC(C(=O)N3CCC(C(=O)Nc4nnc(C(C)(C)C)s4)CC3)CC2=O)cc1 (configuration not stated)	-0.7	-0.5	-2.1%	0.5	-3.4	-8.7
c1ccc(-c2nc3nonc3c3nc4ccccc4n23)cc1	43.1	-1.1	.	-0.2	-9.3	-16.8
C=CCn1c(=O)c(C(=O)NCc2ccc3c(c2)OCO3)c(O)c2ccccc21	-14.9	-3.5	?	2.8	17.3	-24.5
COc1cc2ccccc2cc1C(=O)OCC(=O)NC1CCS(=O)(=O)C1 (configuration not stated)	2.1	0.0	0.6%	0.1	-3.3	3.1
CCC1(C)Cc2c(sc(NC(=S)NC(=O)c3ccccc3)c2C#N)CO1 (configuration not stated)	0.5	-1.0	2.4%	1.4	9.1	-4.4
CC(=O)c1cccc(OCc2cc(C(=O)N(C)C(C)c3ccccn3)no2)c1 (configuration not stated)	-3.2	3.0	0.9%	-0.6	-9.5	-10.3
COc1cc(/C=N/NC(=O)c2ccc(CSc3nncn3C)cc2)cc(OC)c1O	4.7	3.0	0.5%	1.6	-17.0	6.5
CN(CCOc1ccc(Cl)cc1)C(=O)c1cccc(S(=O)(=O)N2CCN(c3ccc(F)cc3)CC2)c1	-5.1	-2.8	4.5%	-0.1	-5.8	-2.2
CCCc1ccc2oc(C(=O)NCCN3CCCC(O)C3)c(C)c2c1 (configuration not stated)	1.8	6.5	-0.1%	1.8	-3.1	-16.2
O=C(Nc1ccc(N2CCC(N3CCCCC3)CC2)c(C(=O)O)c1)c1ccc(Br)cc1	-5.5	.	-0.5%	0.9	.	.
Cc1cccc(C(=O)N2CCc3c([nH]c4ccccc34)C2CC(C)C)n1 (configuration not stated)	5.9	-1.3	-1.4%	0.9	-8.4	1.2
Cc1cccc(C(=O)NNC(=O)c2cc3cc4ccccc4nc3s2)c1	2.9	4.9	3.6%	0.9	1.9	-11.4
Fc1ccccc1NC(=S)N1CCC(c2ccccc2)C1 (configuration not stated)	3.8	1.3	-1.2%	0.1	-19.0	-4.9
COc1cc(C(=O)N/N=C(\C)Cc2ccccc2)cc(OC)c1OC	7.0	1.2	3.8%	-0.3	10.5	-6.5
CC(=O)c1ccc(S(=O)(=O)Nc2ccccc2C(=O)NC2CC2)cc1	7.2	-1.6	1.0%	0.3	0.5	-12.0
COc1ccc(CN(CCc2ccccc2)Cc2ccccc2)cc1OC	52.8	-2.1	?	0.9	11.5	-5.2
O=C(CCS(=O)(=O)c1ccc2c(c1)NC(=O)CS2)NCCc1ccccc1	-1.4	-2.3	-0.8%	0.2	12.1	-1.7
More structures follow.
SMILES	TRPML1 blocker	D2 ag	PINK1 expr mod	TRPML1 agonist	Six1-Eya2 inh	D2 potentiator
Cc1c(C(=O)N2CCC(C)CC2)oc2ccc(S(=O)(=O)N3CCC4(CC3)OCCO4)cc12	-15.7	0.9	4.0%[38.3 µM]	0.5	1.7	-3.9
CCOC(=O)c1sc(Nc2nc3c(OC)cccc3s2)cc1C	-7.6	4.6	14.5%	-0.3	-5.8	5.7
CC(Sc1nc(-c2ccccc2)cc(C(F)(F)F)n1)C(=O)Nc1ccc2c(c1)OCO2 (configuration not stated)	-3.9	0.5	-0.2%	3.2	4.1	-6.8
NC(=O)c1ncn([C@@H]2O[C@H](CNCc3cccn3-c3ccncc3)[C@@H](O)[C@H]2O)n1	-5.7	-1.2	0.4%	-0.3	-1.7	.
O=C(NCC1CCN(Cc2ccc(Cl)cc2)CC1)C1CCCN(c2ncnc3c2nc2n3CCCCC2)C1 (configuration not stated)	2.8	-5.6	-2.2%	-0.2	-5.5	-19.3
Cc1cc(F)ccc1-c1cc(C(=O)NCc2ccccc2)[nH]n1	.	5.0	0.2%	-0.6	-2.1	-16.2
Cc1cc(C)nc(SCC(=O)Nc2sc3c(c2C#N)CCC(C)C3)n1 (configuration not stated)	-10.0	-2.4	0.3%	2.5	-3.7	-18.1
COc1cccc(NC(=S)NNC(=O)Cn2nc(C(F)F)cc2C(F)F)c1	-3.8	-7.6	0.3%	1.8	0.1	-19.6
Cc1csc(NC(=O)CCNC(=O)c2ccc([N+](=O)[O-])cc2)n1	-2.8	-3.0	-0.7%	-1.3	-2.8	-0.1
COc1cc(C)c(S(=O)(=O)n2nnc3ccccc32)cc1C	51.0	-0.8	12.3%[38.3 µM]	0.0	6.3	-10.8

Random draw from the library; about 1% have a hit in one of these screens.
